Bioassay records: PubChem, National Center for Advancing Translational Sciences (NCATS)
Vaccinia mCherry = inhibitors of vaccinia virus infection (mCherry reporter signal); Potency, µM (titrated, usually from 36.5 µM), inactives show at the highest dose activity change, negative = inhibition, actives largely listed as inhibitors; Vaccinia virus mCherry reporter infection, fluorescence; about a quarter of the inactives have no number; AID 720579; 310,000 compounds, 0.63% hits; active = well fitted inhibition curve with a large enough effect; inconclusive = small, poorly fitted or top-dose-only effect; inactive = no such curve, though single readings can be large or run the other way; tested in A549 cells; note: nearly all actives have a fitted effect of over 35% in size; inactives centre near -10
Vaccinia Venus = vaccinia inhibition (Venus reporter) | Vaccinia virus Venus reporter expression, fluorescence | Potency, µM (top dose mostly 36.5 µM), without a hit: at the highest dose activity change, negative = inhibition, usual class: inhibitors | 330,000 compounds, 0.46% hits | AID 720580; active means well fitted inhibition curve with a large enough effect; inconclusive means small, poorly fitted or top-dose-only effect; inactive means no such curve, though single readings can be large or run the other way; tested in A549 cells; note: nearly all actives have a fitted effect of over 30% in size; inactives centre near -10
* = called active by the depositor; i = inactive; ? = inconclusive; nt = no result given; & = joins results of further samples; [ ] = remark or other dose. % is set by controls: 0 for no effect and ±100 for the full control effect; potency is the fitted concentration of half-maximal effect.

| molecule | Vaccinia mCherry | Vaccinia Venus |
| --- | --- | --- |
| CCOC(=O)/C(C#N)=C\C1=C(N2CCCC2)CC(C)(CC)OC1 (stereo not drawn) | nt | -18% |
| COCCNC(=O)C1CCCN(Cc2ccc(Cl)cc2)CC1 (stereo not drawn) | 9% | -1% |
| C[C@@H]1CN([C@@H](C)CO)S(=O)(=O)c2ccc(-c3cccc(C#N)c3)cc2O[C@@H]1CN(C)C(=O)c1ccc(F)cc1 | -24% | ? |
| COc1ccc(NC(=O)CCCC2CCCCC2)cc1S(=O)(=O)N1CCCCC1 | i | -20% |
| CC1(C)CC(=O)C(C=NCCCN2CCOCC2)=C(O)C1 | -11% | -6% |
| CN1CCN(S(=O)(=O)c2ccc(Oc3ccc(F)c(Cl)c3)nc2)CC1 | i | 7% |
| COc1cc(C(=O)NCC(=O)N/N=C(C)\C=C\c2ccccc2)cc(OC)c1OC | ? | -29% |
| Oc1c(C(c2ccc(Cl)cc2Cl)N2CCN(Cc3ccccc3)CC2)sc2nc(-c3ccco3)nn12 (stereo not drawn) | -5% | -9% |
| O=C(/C=C/c1ccccc1)N1CCN(CC(O)COc2ccccc2)CC1 (stereo not drawn) | -15% | -11% |
| Cc1nn(C(=O)c2ccc(Br)cc2)c(C)c1Sc1ccccc1 | -1% | 2% |
| CCc1ccccc1N1CC(c2nc3ccccc3n2CCOc2ccc(Cl)c(C)c2)CC1=O (stereo not drawn) | -28% | ? |
| CCCCN(CCCC)C(=O)C1(P(=O)(c2ccccc2)c2ccccc2)CCC1 | -10%[7.34 µM] | 2%[7.34 µM] |
| O=C1Nc2ccccc2C(O)(C(=O)NCc2ccc3c(c2)OCO3)N1c1ccccc1 (stereo not drawn) | -16% | ? |
| O=C1Nc2ccccc2SC1c1ccccc1Cl (stereo not drawn) | -17% | -6% |
| COc1cc(CNc2ccc(N3CCN(C(C)=O)CC3)cc2)ccc1OCc1ccccc1 | -9% | -7% |
| O=C(c1ccco1)N1CCN(S(=O)(=O)N2CCOCC2)CC1 | -6% | 2% |
| CCCC1CC(C(=O)N[C@H](C(C)O)C2OC(SC)[C@@H](O)C(O)C2O)N(C)C1 (stereo partly drawn) | -7% | -5% |
| CSc1cccc(NC(=O)c2ccc(NC3=NC4CS(=O)(=O)CC4S3)cc2)c1 (stereo not drawn) | i | -10% |
| COc1ccccc1CNC(=O)C(=O)NCC1OCCCN1S(=O)(=O)c1cccs1 (stereo not drawn) | -16% | -10% |
| CCc1nc2ccc(C(=O)NCCCN3CCCC3=O)cn2c1N(CC)CCOC | 45%[activator] | -5% |
| Cc1cccc(Cn2cc3c(=O)n(CC(=O)Nc4ccc(C)c(F)c4)nc-3c3cc(F)ccc32)c1 | -23% | -23% |
| COc1ccc(C2N(c3ccccc3)C(=S)N3CCCN23)cc1 (stereo not drawn) | -20% | -7% |
| COc1cc(C#Cc2c(-c3cncn3C)n(C)c3ccc(-c4ccc(OC)nc4)cc23)cc(OC)c1 | ? | 28µM* |
| COc1ccc(CCNC(=O)c2cc3ccccc3oc2=O)cc1 | -4% | -16% |
| O=C(NCc1cccnc1)c1cc(C2CCCCN2S(=O)(=O)c2cccs2)on1 (stereo not drawn) | -13% | -5% |
| COC(=O)CNC(=O)COC(=O)C(Cc1ccccc1)NC(=O)c1ccco1 (stereo not drawn) | -2% | 4% |
| N#CC(c1ccccn1)(c1ncc(C(F)(F)F)cc1Cl)N1CCOCC1 (stereo not drawn) | i | -7% |
| CCOC(=O)CC(=O)CSc1nc2ccccc2c(=O)n1-c1ccc(C(=O)NCCOC)cc1 | i | -10% |
| O=[N+]([O-])c1ccc(C2CNC(c3ccccc3)O2)cc1 (stereo not drawn) | -9% | -1% |
| CN(CC(=O)Nc1ccccc1[N+](=O)[O-])Cc1ccc(Br)cc1 | -7% | -10% |

Brought forward from above: two entries, then new ones.
| molecule | Vaccinia mCherry | Vaccinia Venus |
| --- | --- | --- |
| O=[N+]([O-])c1ccc(C2CNC(c3ccccc3)O2)cc1 (stereo not drawn) | -9% | -1% |
| CN(CC(=O)Nc1ccccc1[N+](=O)[O-])Cc1ccc(Br)cc1 | -7% | -10% |
| C/C(=N\NC(=O)c1ccoc1C)c1ccccc1 | i[7.34 µM] | -8%[7.34 µM] |
| CNC(=O)OCc1nc(SSC(C)(C)C)n(C)c1COC(=O)NC | -24% | ? |
| O=C(Cc1csc2ccccc12)NCc1ccccc1F | -3% | -14% |
| CCC(C)[C@H](NC(=O)N1CC(=O)Nc2ccccc21)C(=O)N[C@H](Cc1ccccc1)C(=O)O (stereo partly drawn) | -9% | -1% |
| COc1cccc(-c2ccc3ncnc(NC4CCNCC4)c3c2)c1 | ? | ? |
| COc1cccc(NC(=O)Cn2c(=O)n(-c3ccccc3)c(=O)c3oc4ccccc4c32)c1 | 0% | -18% |
| CCCCN(C(=O)c1oc2ccc(OCC)cc2c1C)c1c(N)n(CC(C)C)c(=O)[nH]c1=O | i | -12% |
| CCN(CC)S(=O)(=O)c1ccc(C(=O)NC(=S)N2CCN(c3ccccc3O)CC2)cc1 | ? | ? |
| COc1cc(OC)cc(C(=O)NCC(=O)OCC(=O)N2c3ccccc3NC(=O)C2(C)C)c1 | i | -7% |
| CCCOc1ccc(/C=C/C(=O)N2CCN(c3ccccn3)CC2)cc1 | i | -1% |
| CCOc1ccc(C(=O)NCC(=O)OCc2c(F)cccc2Cl)cc1OCC | -20% | -18% |
| O=C(N1CCN=C1SCc1cccnc1)C12CC3CC(CC(C3)C1)C2 | ? | -27% |
| O=C(NCCc1nnc2ccc(N3CCCC3)nn12)c1ccccc1 | -22% | -9% |
| Cc1csc(N/N=C/c2ccccc2F)n1 | ? | -7% |
| Cc1nc(=O)c(-c2ccccc2)c(C)n1CC1CCCO1 (stereo not drawn) | 1% | -2% |
| O=c1[nH]c(-c2ccccn2)nc2sc(-c3ccccc3)cc12 | 4.5µM* | ? |
| CS(=O)(=O)N1CCCC(C(=O)NCCCN2CCOCC2)C1 (stereo not drawn) | -3% | 4% |
| O=C(NCc1ccccc1)/C(=C/c1ccc(OC(F)F)cc1)c1ccccc1 | -20% | ? |
| Cc1cc(=O)cc(C)n1-c1ccc(O)cc1 | i | -7% |
| CC(=O)OCc1ccccc1Sc1ccccc1C(=O)NCc1ccccc1 | i[7.34 µM] | -12%[7.34 µM] |
| C=CCNC(=S)Nc1ccc2cn[nH]c2c1 | i | 3% |
| O=C(NCC(=O)N(c1ccccc1)C(C(=O)NC1CCCCC1)c1cccnc1)c1cccs1 (stereo not drawn) | i | -3% |
| Cc1cc(S(=O)(=O)N(Cc2ccc(F)cc2)CC2CCCO2)ccc1-n1cnnn1 (stereo not drawn) | -20% | -16% |
| O=C(OCC(=O)N1CCCC1)c1ccco1 | nt | -14% |
| CCOC(=O)c1c(C)[nH]c(C(=O)OCC(=O)Nc2cc(C)nn2-c2ccccc2)c1C | -27% | -10% |
| CC1=C(c2ccc(C)c(C)c2)S(=O)(=O)NC1=NCc1ccccc1Cl | -11% | -8% |
| O=C(NCCc1ccccc1)C(c1cccs1)N(C(=O)CCl)c1ccc(Cl)cc1 (stereo not drawn) | ? | ? |
| O=C(NCc1cccnc1)c1cccc(S(=O)(=O)Nc2ccc(F)cc2)c1 | i | -15% |
| CCN(CC)CCCn1c(SCC(=O)NCC2CCCO2)nc2ccccc2c1=O (stereo not drawn) | 0% | -6% |
| C#Cc1ccc([C@@H]2C=C(C(=O)NC3CC3)O[C@H](OCC)[C@H]2CCCO)cc1 | i | -23% |

2 of the compounds above, field by field.
CNC(=O)OCc1nc(SSC(C)(C)C)n(C)c1COC(=O)NC
  Vaccinia mCherry: -24% | Vaccinia Venus: ?

CC1(C)CC(=O)C(C=NCCCN2CCOCC2)=C(O)C1
  Vaccinia mCherry: -11% | Vaccinia Venus: -6%

More records
| molecule | Vaccinia mCherry | Vaccinia Venus |
| --- | --- | --- |
| COc1ccc(C)cc1NC(=O)c1ccc2c(=O)n3c(nc2c1)CCCCC3 | -11% | -9%&-5% |
| CCc1nnc(SCC(=O)Nc2ccc3c(c2)OCO3)n1CC | -8% | -9% |
| Cc1[nH]n(-c2nc(-c3ccccc3)cc(=O)[nH]2)c(=O)c1CCO | 1% | -6% |
| CCCCSC(=O)Nc1ccccc1 | -16% | -19% |
| CCOc1ccc(/C=C/c2nc3ccccc3n2S(=O)(=O)c2cccc(Cl)c2)cc1 | -7%[7.34 µM] | -8%[7.34 µM] |
| C=CCNC(=O)c1c(N)n(CCN2CCOCC2)c2nc3ccccc3nc12 | i | -4% |
| O=C(Nc1ccc(F)c(Cl)c1)C1Cc2c(-c3ccccc3Oc3ccccc3)ccnc2O1 (stereo not drawn) | i | -11% |
| CCC(C)[C@H](NC(=O)NCc1cccs1)C(=O)O (stereo partly drawn) | nt | -6% |
| CCn1c(SCC(=O)N(C)c2c(N)n(Cc3ccccc3)c(=O)[nH]c2=O)nnc1-c1cccs1 | -16% | -6% |
| CCCCn1c(N)c(N(CCOC)C(=O)c2cc(-c3ccncc3)nc3ccccc23)c(=O)[nH]c1=O | -7% | -11% |
| O=C(CSc1nnc(NC(=O)c2ccccc2[N+](=O)[O-])s1)NCC1CCCO1 (stereo not drawn) | -15% | -8% |
| CCCSc1cc(N2CCOCC2)nc(-c2ccccc2Cl)n1 | -3% | -24% |
| COc1ccc2c(c1)c1c(c(=O)n(Cc3ccccc3)c(=O)n1CC(=O)Nc1ccccc1OC)n2C | 11% | 11% |
| COc1cccc(/C=C/C(=O)OCC(=O)NC2CCCCCC2)c1 | -2% | -14% |
| CC(=O)OCC(=O)Nc1ccc(C(C)=O)cc1 | -11% | 1% |
| CC(C)NC(=O)COC(=O)c1cc(F)c(F)cc1Cl | -2% | 0% |
| CCOC(=O)Cc1nnc2c(Nc3ccc(C)cc3)nc3nonc3n12 | nt | 6% |
| CCC(C)NC(=S)NNC(=O)c1ccc(C(C)(C)C)cc1 (stereo not drawn) | -14%[1.46 µM] | -14% |
| O=C(Cn1ccc([N+](=O)[O-])n1)NCc1ccco1 | i | -20% |
| COc1ccc(C2CC(O)(c3ccccc3)Oc3c(C)ccc(C)c32)cc1 (stereo not drawn) | ? | ? |
| O=C(COc1ccc(Cl)cc1)N1N=C(c2cccs2)CC1c1ccco1 (stereo not drawn) | ? | -13% |
| CCOC(=O)C1CCCN(C/C(O)=C(\C#N)c2nc(-c3ccccc3)cs2)C1 (stereo not drawn) | i | -10% |
| COc1cccc(CNc2nc3cc(-c4csc5ccccc45)sc3c(=O)n2C)c1 | 22% | -12% |
| Brc1ccc(-c2cc3c(N4CCN(c5ccccc5)CC4)nccn3n2)cc1 | -8% | 0% |
| CCCCCCn1c(SCC#N)nc2ccccc2c1=O | 28% | -5% |
| CCOC(=O)c1cn(Cc2ccc(Cl)cc2Cl)c2cc(C)nn2c1=O | -6% | -11% |
| COc1cc(-c2nnc(-c3cccnc3)o2)cc(OC)c1OC | -19% | -13% |
| O=C(CNc1ccc(Br)cc1)Nc1ccc(S(=O)(=O)N2CCCC2)cc1 | ? | -15% |
| Cc1ccc[n+](CC(=O)c2cc3ccccc3oc2=O)c1 | i | -19% |
| Cc1ccn2c(Cc3ccccc3)c(-c3ccc(F)cc3)nc2c1 | i | -18% |

New compounds follow.
| molecule | Vaccinia mCherry | Vaccinia Venus |
| --- | --- | --- |
| COCCn1cc(C(=S)N2CCCCC2)c2ccccc21 | -17% | -14% |
| COc1ccc(NC(=O)CSc2nccn2Cc2ccco2)cc1OC | -9% | -24% |
| COc1ccc(-c2cc(OC(=O)c3cccc(Cl)c3)c3c(C)oc(C)c3c(=O)c2)cc1 | -5% | 23% |
| O=C(NCCCn1ccnc1)/C(=C\c1cccs1)NC(=O)c1ccccc1 | i | -10% |
| COc1ccc(OC)c(S(=O)(=O)NCc2ccc3c(c2)CCN3C(=O)c2cccc(C)c2)c1 | -27% | -22% |
| O=C(CSc1nc2ccccc2c(=O)n1CC1CCCO1)NCc1ccc2c(c1)OCO2 (stereo not drawn) | -16% | -4% |
| CCN1C(=O)[C@H]2[C@@H](c3ccc(-c4ccccc4)c(OC)c3)N[C@@](Cc3ccccc3)(C(=O)OC)[C@H]2C1=O | -9% | -1% |
| CC(C)CN(C(=O)CSc1nncs1)c1c(N)n(CC(C)C)c(=O)[nH]c1=O | -4% | -2% |
| O=C(Cc1ccccc1)Nc1ccccc1CO | i | -15% |
| O=C(Cn1c(CN2CCCCC2)nc2ccccc2c1=O)NCc1ccco1 | -13% | -9% |
| COc1cccc(-c2nn(-c3ccccc3)cc2/C=C(/NC(=O)c2ccccc2)C(=O)O)c1 | -7% | -8% |
| CN1CCC(C2(O)c3ccccc3CSc3sccc32)CC1 (stereo not drawn) | -12% | -25% |
| CC(C)(CNC(=O)c1sc2cc(F)ccc2c1Cl)N1CCOCC1 | -9% | -11% |
| Nc1c(C(=O)c2ccc(Br)cc2)oc2ccccc12 | -7% | -9% |
| COc1ccc(S(=O)(=O)NCC(=O)N(Cc2ccco2)C(C(=O)NC(C)(C)C)C(C)C)cc1 (stereo not drawn) | -12% | -5% |
| CCN(CC)S(=O)(=O)c1ccc(Cl)c(NC(=O)c2cc(Cl)ccc2Cl)c1 | -13% | -9% |
| Cc1[nH]c2ccccc2c1C(=O)COC(=O)c1cccc(S(=O)(=O)N2CCCCC2)c1 | ? | -23% |
| Cc1ccccc1NC(=O)c1c(C)oc2ccc(O)c(CN3CCN(C)CC3)c12 | -11% | -2% |
| O=C(CSc1c2c(nc3ccccc13)CCC2)Nc1ccc(F)cc1F | -14% | -3% |
| CCOc1ccc(NC(=O)CNC(=O)Cc2ccccc2)cc1 | i | -9% |

The order is random (roughly 0.87% active in at least one column).
